hNpr1 antagonist – human Npr1 receptor antagonism; P16066; 76,000 compounds, 1.6% hits; AID 1347048; HEK293 hNpr1 GloSensor cGMP, ANP-stimulated luminescence; Potency, µM (doses to about 46.3 µM), inactives show top-dose activity change, negative = inhibition, most hits filed as inhibitors; active = well fitted inhibition curve with a large enough effect; inconclusive = small, poorly fitted or top-dose-only effect; inactive = no such curve, though single readings can be large or run the other way;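 also: nearly all actives have a fitted effect of over 60% in size; nearly all hits also lower the signal before the agonist is added; a reference antagonist and vehicle were the controls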
Target sequence (P16066 whole entry, looked up): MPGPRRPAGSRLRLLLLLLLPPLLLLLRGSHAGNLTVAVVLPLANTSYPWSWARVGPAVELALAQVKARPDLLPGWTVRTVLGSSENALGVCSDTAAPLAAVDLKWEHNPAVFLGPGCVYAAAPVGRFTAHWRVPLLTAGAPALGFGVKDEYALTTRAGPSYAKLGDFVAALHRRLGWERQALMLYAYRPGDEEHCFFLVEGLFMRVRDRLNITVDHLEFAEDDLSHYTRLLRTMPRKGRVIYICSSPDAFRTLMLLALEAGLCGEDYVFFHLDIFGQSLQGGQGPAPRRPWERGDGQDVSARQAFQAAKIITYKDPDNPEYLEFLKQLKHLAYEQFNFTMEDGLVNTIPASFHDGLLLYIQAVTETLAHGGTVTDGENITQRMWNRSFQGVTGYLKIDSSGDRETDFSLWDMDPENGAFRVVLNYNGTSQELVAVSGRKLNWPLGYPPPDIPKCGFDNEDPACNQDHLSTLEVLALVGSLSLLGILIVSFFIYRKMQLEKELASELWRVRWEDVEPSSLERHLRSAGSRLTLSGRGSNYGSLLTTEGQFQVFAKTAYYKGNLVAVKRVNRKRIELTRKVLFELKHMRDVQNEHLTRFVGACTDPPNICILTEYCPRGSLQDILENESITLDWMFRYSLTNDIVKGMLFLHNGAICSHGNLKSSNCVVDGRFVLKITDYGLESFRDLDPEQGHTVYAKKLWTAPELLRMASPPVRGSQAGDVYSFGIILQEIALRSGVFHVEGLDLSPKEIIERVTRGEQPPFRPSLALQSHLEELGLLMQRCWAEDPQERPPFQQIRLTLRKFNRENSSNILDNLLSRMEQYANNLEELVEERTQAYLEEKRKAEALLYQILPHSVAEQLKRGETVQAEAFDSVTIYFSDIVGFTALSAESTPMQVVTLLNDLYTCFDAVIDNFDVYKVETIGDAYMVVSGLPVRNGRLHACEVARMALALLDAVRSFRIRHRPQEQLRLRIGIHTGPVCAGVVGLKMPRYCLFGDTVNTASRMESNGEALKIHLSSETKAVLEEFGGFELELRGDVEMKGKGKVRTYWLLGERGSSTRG
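HEK293 cells stably expressing human Npr1 and cGMP GloSensor pGS-40F, loaded 2 h with 2% GloSensor reagent, given compound 30 min at room temperature. Luminescence read before and 20 min after 0.1 nM hNppA.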
Active calls of the source: *; ? = inconclusive; [ ] = dose if it differs, or a comment. % is scaled to controls: 0 for no effect and ±100 for the full control effect; potency is read from the fitted curve at half-maximal effect.

SMILES	hNpr1 antagonist
COCCN1C(=O)[C@@H]2C[C@@H](CN2C(=O)C2CC2)Oc2ccccc21	-4%[70.6 µM]
OCC1CN(c2ccncn2)CC12CCN(Cc1ccncc1F)CC2 (configuration not stated)	4%
CCn1c(CC2CCNCC2)nn(Cc2csc(-c3ccccc3)n2)c1=O	5%
COCC(=O)NC[C@H]1CCN(C2CCSCC2)C[C@H]1N(C)C	6%
Cc1ncc2c(c1CNC(=O)c1ccccc1OC(F)F)CCNC2	3%
CCn1nccc1C(=O)N1CC(Oc2ccccc2-c2nc(CCOC)no2)C1	2%
C=CCO[C@@H]1C[C@H]2C(=O)Nc3ccc(-c4ccccc4)cc3C(=O)N2C1	-10%[70.6 µM]
CCOc1ccc(CC(=O)N2CCN(c3cc(-c4ccccc4)[nH]n3)CC2)cc1	0%
CN(C)C[C@@H]1CN(S(C)(=O)=O)C[C@H]1NC(=O)c1ccsc1	-4%
Cc1ccc(S(=O)(=O)N[C@H]2C[C@@H](c3nc(-c4ccc5c(c4)OCO5)no3)N(C)C2)cc1	?
Cc1ccc(-c2nnc(C3CN(C(=O)C4CCCCC4)CC34CCOCC4)o2)cc1 (configuration not stated)	-9%
O=C([C@@H]1C[C@H](Oc2ccccc2)CN1S(=O)(=O)c1cccc(F)c1)N1CCOCC1	2%
Cc1ccc(C(=O)Nc2ccc3ncnc(N4CCCCC4)c3c2)s1	-16%
Fc1ccc(CN2CCN(C3CCNC3)CC2)cc1Cl (configuration not stated)	8%
CC(C)OCCCNC(=O)c1ccc2c(c1)N(S(C)(=O)=O)CC2	-4%
O=C1CC(c2nc(-c3ccc4nc[nH]c4c3)no2)CN1Cc1ccncc1 (configuration not stated)	2%
O=C(C1CCN(Cc2ccco2)CC1)N1CCC2(CCCNC2=O)C1 (configuration not stated)	3%
Cc1noc([C@@H]2CN(C(=O)CCC(C)C)C[C@H]2CO)n1	-1%
COc1ccccc1CNC(=O)c1ccc2c(c1)N(C)C1CCCCN1C2=O (configuration not stated)	-1%
COc1ccc(-c2noc(CC3CCN(C(=O)CCCc4ccccc4)CC3)n2)cc1	?
O=C(c1ccccn1)N1CCC2(CCCCO2)CC1	1%
N#Cc1ccccc1CN1CCN(c2nccc(CCC(F)(F)F)n2)CC1	-2%
CCn1nccc1C(=O)N1CCC2(CC1)N=C(c1ccc(C)cc1)NO2	4%
Cc1cc(C(=O)N2CC[C@@](O)(C3CCOCC3)[C@H](C)C2)ccc1F	-2%
Cc1ccsc1[C@@H]1CCN(C(=O)CCc2ccc(F)cc2F)C[C@H]1O	-14%
Cc1noc2c(NC3CCN(C)CC3)cc(-c3ccccc3)nc12	1%[70.6 µM]
Cc1nc2ccc(Cl)cn2c1C(=O)NC1CCOC2(CCOCC2)C1 (configuration not stated)	5%
O=C(c1ccccc1Cl)N1CCC(N2CCCCCC2=O)CC1	14%
COc1ccc(CNC(=O)[C@H]2O[C@H](CCN3CCC(CO)CC3)CC[C@@H]2O)cc1	15%[70.6 µM]
Cc1nnn2c(C(=O)N(C)C)cccc12	29%[70.6 µM]

A second format for some results above:
| SMILES | hNpr1 antagonist |
| --- | --- |
| COc1ccc(CNC(=O)[C@H]2O[C@H](CCN3CCC(CO)CC3)CC[C@@H]2O)cc1 | 15%[70.6 µM] |
| CCn1nccc1C(=O)N1CCC2(CC1)N=C(c1ccc(C)cc1)NO2 | 4% |
| Cc1nc2ccc(Cl)cn2c1C(=O)NC1CCOC2(CCOCC2)C1 (configuration not stated) | 5% |
| O=C1CC(c2nc(-c3ccc4nc[nH]c4c3)no2)CN1Cc1ccncc1 (configuration not stated) | 2% |
| Cc1ccsc1[C@@H]1CCN(C(=O)CCc2ccc(F)cc2F)C[C@H]1O | -14% |
| N#Cc1ccccc1CN1CCN(c2nccc(CCC(F)(F)F)n2)CC1 | -2% |

(cont.)
SMILES	hNpr1 antagonist
CC(NC(=O)c1cn(C2CCC(N)CC2)nn1)c1ncnn1C (configuration not stated)	7%
c1ccc(Cn2cc(CN3CCN(c4ccncc4)CC3)c(-c3cc4ccccc4o3)n2)cc1	1%
COc1ccc(CN2CCN3C(=O)N(Cc4ccc(C)cc4)C[C@H]3C2)cc1	?
CCOc1ccccc1NC(=O)N1CCCN(S(C)(=O)=O)C(c2ccccc2)CC(=O)NCC1 (configuration not stated)	1%
CCOc1ccc(CC(=O)Nc2cccc(-c3nnc4n3CCCC4)c2)cc1	0%
Cc1cnc(C(=O)N2CCCC2c2nc(CCOc3ccc(F)cc3)no2)cn1 (configuration not stated)	-11%
CC(c1cccs1)N(C)Cc1ccnn1C (configuration not stated)	0%[70.6 µM]
NC(=O)Nc1ccc(S(=O)(=O)NCc2cc3n(n2)CCCNC3)cc1	9%
Cc1cccc(NC(=O)Nc2ccc(C)n(CC(=O)NC3CCCCC3)c2=O)c1	-1%
Cc1ncsc1CCC(=O)N[C@@H]1COCC[C@@H]1OCc1cscn1	-8%
O=C1Nc2ccc(-c3cccs3)cc2C(=O)N2CC[C@H](NS(=O)(=O)c3ccc(Cl)cc3)C[C@@H]12	-2%
Cc1cc(C)c2[nH]c(C(=O)NCc3nc(-c4ccccn4)no3)c(C)c2c1	-1%
Cc1cccc(NC(=O)c2ccc(N3CC4CC(C3)[C@H]3CCCC(=O)N3C4)nc2)c1 (some centres not stated)	5%
OCc1cccc(-c2ccc3ncc(Nc4ccccc4Cl)n3n2)c1	-20%[70.6 µM]
COc1ccc(CCc2nc3nccc(-c4cccs4)n3n2)cc1OC	-9%
O=C1CCN(C(=O)[C@H](Cc2ccccc2)NC(=O)c2cccs2)CCCOCCN1	5%
CNC(=O)[C@@H]1CN(C(=O)Cn2c(=O)oc3ccccc32)C[C@H]1c1n[nH]c(C)n1	-2%
COc1ccc(CC(=O)N2C[C@@H](CO)[C@H](c3nc(C)no3)C2)cc1	-2%
COc1cccc(CNC(=O)c2ccc3c(c2)CC(=O)N3Cc2cccc(F)c2)c1OC	1%
O=C(c1cccc(Cl)c1)N1CCC2(C1)NC(=O)N(Cc1ccc(F)cc1)C2=O (configuration not stated)	?
O=C(NCc1ccccn1)c1cccc2c1CCN2C(=O)C1CC1	-2%
O=C(NCc1nncn1C1CCCCC1)C1CNCCO1 (configuration not stated)	2%
NCCCC(=O)N1CCCC(N2CCN(Cc3ccc4c(c3)OCO4)CC2)C1 (configuration not stated)	7%
O=C(CC1=CCCCC1)N1CCC2(CC1)CN(c1ccncn1)CC2CO (configuration not stated)	-7%
COc1ccc(-c2ccc3c(n2)c(=O)ncn3Cc2ccccc2)cn1	-2%[70.6 µM]
CC(C)CN1C(=O)c2ccccc2C(C(=O)NC(C)C)C12CCCC2 (configuration not stated)	1%
COc1ccccc1-c1nccc2c(=O)cc(-c3ccccn3)oc12	2%[70.6 µM]
O=C1NCCC[C@@H]1NC(=O)[C@H]1CN(C(=O)NC2CCCCC2)CCN1C(=O)c1cncnc1	6%
COc1ccccc1NC(=O)C1CN(S(C)(=O)=O)CC12CCCCC2 (configuration not stated)	-1%
c1ccc2c(c1)CCN(Cc1ccc3c(c1)CNCCO3)C2	-6%
Cc1ccc(CNC(=O)C2(Cc3ccccc3)CCCCC(=O)N2)cc1 (configuration not stated)	-2%
COc1cccc(-c2nnnn2[C@H]2CO[C@H]3[C@@H]2OC[C@@H]3NC(=S)Nc2ccc(F)cc2)c1	-9%
COc1ccc(-c2nc(-c3c(C)noc3C)cc3c2cc(-c2ccccc2)n3C)cn1	-17%[70.6 µM]
NC(=O)c1ccc(S(=O)(=O)N2CC[C@@H](CC(=O)O)[C@@H](CC3=NCCc4ccccc43)C2)cc1	0%
O=C(NCCc1nccc(-c2ccccc2)n1)c1ccc2cccc(F)c2n1	0%
CCOc1cc2c(cn1)NCCN(Cc1ccccc1OC)C2	5%[70.6 µM]
COc1ccc(C(=O)N2CCC(c3n[nH]c(=O)n3-c3ccccc3)CC2)cc1F	2%
CCC(O)CNC(=O)c1cnn2cc(CN(CC)CC)cnc12 (configuration not stated)	0%
Cn1nc(CN2CCSCC2)c2c(Cl)cccc21	0%
COc1ccc(C(=O)N2CC[C@@H]3CN(c4cnccn4)[C@@H]3C2)c(OC)n1	5%
Cc1ccncc1C(=O)N1CC[C@@H]2CN(S(C)(=O)=O)[C@@H]2C1	-1%
Cc1nc(CCNC(=O)[C@H]2CCC[C@H](O)C2)nc2c1CCC2	6%
COCCN(C)C(=O)C(C)(C)Oc1nn(Cc2cccnc2)c2ccc(COC)cc12	3%[70.6 µM]
O=C(NC[C@H]1O[C@@H](Cc2nc(-c3ccc(OC(F)(F)F)cc3)no2)[C@H](O)[C@@H]1O)C1CC1	?
Cc1cccc(CN2CCNc3cnc(Oc4ccccc4)cc3C2)c1	-14%[70.6 µM]

Brought forward from above: 3 compounds, followed by the next part.
SMILES	hNpr1 antagonist
COCCN(C)C(=O)C(C)(C)Oc1nn(Cc2cccnc2)c2ccc(COC)cc12	3%[70.6 µM]
O=C(NC[C@H]1O[C@@H](Cc2nc(-c3ccc(OC(F)(F)F)cc3)no2)[C@H](O)[C@@H]1O)C1CC1	?
Cc1cccc(CN2CCNc3cnc(Oc4ccccc4)cc3C2)c1	-14%[70.6 µM]
O=C(Nc1ccccc1)N[C@H]1CO[C@H]2[C@@H]1OC[C@@H]2Nc1nccc(C2CCCC2)n1	2%[70.6 µM]
Cc1ccc(CNC(=O)C2CCN(c3cn[nH]c(=O)c3)C2)o1 (configuration not stated)	2%
Cn1c([C@H]2CCN(S(=O)(=O)c3cccc4cccnc34)C2)nc2ccccc21	0%[70.6 µM]
COCC(=O)N1CCc2nc(-c3ccc(Cl)cc3)nc(-c3ccccc3)c2C1	1%
CCC(C)NC(=O)C(NC(=O)c1ccccc1)C1CCN(C(=O)c2ccc(Cl)cc2)CC1 (configuration not stated)	-11%
CN(C)C(=O)[C@@H]1CN(Cc2cc(F)c(F)cc2F)C[C@H]1CO	5%
CC(C)N(C(=O)c1ccccc1-c1ccc(CS(C)(=O)=O)cn1)C(C)C	4%
CNc1nc(N2CC[C@H](N3CCN(C)CC3)[C@H](CCC(=O)O)C2)ncc1F	10%
O=C(Nc1ccccc1)c1nc2c(o1)CCN(Cc1ccccc1)CC2	13µM*
COc1cccc(CNC(=O)N2c3ccccc3CC2c2nc(C3CC3)no2)c1 (configuration not stated)	?
c1ccc(COc2ccc(CN3CCN(C4CCNC4)CC3)cc2)cc1 (configuration not stated)	-27%
COc1ccc(CN[C@H]2CC(C)(C)[C@@H]3C[C@@](C)(O)CC[C@]23CCC(=O)NCc2ccco2)cc1	0%
O=C(C1CCC1)N1CCC(Cc2nc(-c3cccnc3)n[nH]2)C1 (configuration not stated)	0%
COc1cc(-c2n[nH]c(=O)n2CCC(=O)O)ccc1O	-2%
CCC[C@H]1CN(CCCOc2ccc(C(N)=O)cc2)C[C@@H]1NC(C)=O	12%

Reprinted from the part before: 2 entries, then new ones.
SMILES	hNpr1 antagonist
COc1cc(-c2n[nH]c(=O)n2CCC(=O)O)ccc1O	-2%
CCC[C@H]1CN(CCCOc2ccc(C(N)=O)cc2)C[C@@H]1NC(C)=O	12%
COCCOC1CCOC2(CCN(C(=O)Cc3ccsc3)CC2)C1 (configuration not stated)	16%
Cc1ccc(N(CC(=O)N[C@H]2CC[C@H]2N)S(C)(=O)=O)cc1	3%
COc1ccccc1CCC(=O)N1CCN(c2cc(-c3cccs3)[nH]n2)CC1	-17%
Cc1ccccc1NC(=O)N1CCc2c(c3cc(F)ccc3n2C)C1	-1%
O=[S+]([O-])(Nc1ccccc1)c1ccc2c(c1)OCCN(Cc1ccsc1)C2	?
O=C(O)c1ccccc1C(=O)N[C@H]1CO[C@H]2[C@@H]1OC[C@@H]2n1nnnc1Oc1cccc(N2CCOCC2)c1	-2%
O=C(NC1CCCC1)C1CCc2ncc(-c3ccc(F)cc3)n2C1 (configuration not stated)	?
O=C1CC(c2ccccc2)N(Cc2ccc3[nH]ccc3c2)CCCCCN1 (configuration not stated)	-15%
Cc1cnccc1N1CCCN(C(=O)C2CC3(CCNCC3)CN2)CC1 (configuration not stated)	2%
COc1ccc(-n2cc(CN3CCCN(C)CC3)c(-c3cccc(F)c3)n2)cc1	-6%
O=C1CO[C@H]2CCN(Cc3ccccc3Cl)CC[C@@H]2N1CCc1cccnc1	-29%[70.6 µM]
O=C(CC1CCCC1)N1CCCCCC1c1nnc(-c2ccccc2)o1 (configuration not stated)	2%
O=C(C1CCCC1)N1CCC(Oc2cccc(F)c2)C1 (configuration not stated)	-3%
O=C(c1ccncc1)N1CC[C@H](c2nnc(-c3ccncc3)o2)C1	-2%[70.6 µM]
CSCC(=O)N1CCC2(CCN(Cc3cccc(F)c3)CC2)C(CO)C1 (configuration not stated)	-1%
O=C(Nc1ccc(Cl)cc1)N1CCn2c(nnc2-c2ccccc2)C1	-2%
COc1cc(-c2ccnc3ncnn23)cc(OC)c1OC	3%
Cc1ccc(-c2nc(C(=O)N3CCN(c4ccccc4C)CC3)no2)cc1	-3%
O=C(C1CC1)N1CCOc2ccc(CN3CCCC3)cc2C1	2%
CNC(=O)[C@H]1C[C@H](Oc2ccccc2)CN1C(=O)Cc1ccccc1F	-7%
Cc1ccc(C)c(-n2nc(-c3c(C)nc4scc(CC(=O)N5CCOCC5)n4c3=O)cc2C)c1	2%
O=C(CCC[C@H]1NC[C@@H]2C[C@H]1CN(Cc1ccccc1)C2)N1CCN(C2CCCCC2)CC1	8%
Cc1cc(C)nc(N2CCN(C(=O)C3CCN(CC(N)=O)CC3)CC2)n1	3%
CN1Cc2cccn2CC1CNC(=O)Cc1cccc(F)c1 (configuration not stated)	-16%
Cc1nc(CN2C[C@H](C(=O)NCc3cccc(Cl)c3)C[C@@H]2c2ccc(F)cc2)cs1	3%
CN(CC1CCOCC1)C(=O)Nc1ccccc1C(F)(F)F	1%
O=C([C@@H]1CCCN1C(=O)Cn1ccc2ccccc2c1=O)N1CCOCC1	4%
O=C(Cc1ccccc1)N1CCn2c(nnc2[C@@H]2C[C@@H](O)CN2Cc2ccccc2)C1	0%

A portion of the library (hit frequency here may not be typical).
